From PubChem BioAssay
HSD17B inh – inhibitors of human HSD17B10 dehydrogenase | Q99714 | Potency, µM (highest dose often 57.1 µM), without a hit: at the top dose activity change, negative = inhibition, hits mostly inhibitors | recombinant HSD17B10, NADH fluorescence kinetic; many of its hits are not listed in these tables | AID 893 | 7.6% of 75,000 active; active means well fitted inhibition curve with a large enough effect;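 further: the protocol describes HADH2 (HSD17B10) and not the HSD17B4 of the title; nearly all actives have a fitted effect of over 70% in size; most hits overshoot -100% by far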
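20 nM HADH2, pH 9.0 Tris/Tween; cpd preinc 15 min RT; start w/ 1 mM NAD+ + 90 uM b-hydroxybutyryl-CoA; kinetic fluor ex360/em450 q30s x 4 min; delta last-first.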
The depositor's hits bear a star; [ ] = remark or other dose. On the % scale 0 is the no-effect control and ±100 the full control effect; potency means the concentration at half of the fitted maximal effect.

SMILES	HSD17B inh
C[N+]1(C)CCC(=C(c2ccccc2)c2ccccc2)CC1	4%[25.6 µM]
C1COC(NC(C2CC2)C2CC2)=N1	5%
CN1CCO[C@H](c2ccccc2)c2ccccc2C1	9%[25.6 µM]
Oc1ccc2c(c1)OCC1(O)Cc3cc(O)c(O)cc3C21 (configuration not stated)	13µM*
C[C@@H](C(=O)O)c1ccc(C(=O)c2cccs2)cc1	-4%[25.6 µM]
C=C1c2cccc(O)c2C(O)=C2C(=O)[C@]3(O)C(O)=C(C(N)=O)C(=O)C(N(C)C)C3C(O)C12 (some centres not stated)	13µM*
NOCC(=O)O	-10%
CCCCNc1ccc(C(=O)OCCOCCOCCOCCOCCOCCOCCOCCOCCOC)cc1	-8%[25.6 µM]
CN=C(NC#N)Nc1ccc(C2=NNC(=O)C[C@@H]2C)cc1	7%
CCCCC(=O)O[C@@]1(C(=O)CO)C(C)CC2C3CCC4=CC(=O)C=C[C@@]4(C)[C@]3(F)C(O)C[C@]21C (some centres not stated)	4%
OC[C@@H](O)CN1CCN(c2ccccc2)CC1	3%[25.6 µM]
NC(N)=O	4%
CCn1cc(C(=O)O)c(=O)c2cnc(N3CCNCC3)nc21	-7%
CC(=O)OCC(=O)[C@@]1(O)CC[C@@H]2[C@H]3CCC4=CC(=O)C=C[C@]4(C)[C@]3(F)[C@@H](O)C[C@@]21C	-3%[25.6 µM]
COc1nccc(-c2c(-c3ccc(F)cc3)ncn2C2CCC(O)CC2)n1 (configuration not stated)	-1%
CC1CC2C3CCC4=CC(=O)C=C[C@]4(C)[C@@]3(Cl)C(O)C[C@]2(C)C1(OC(=O)c1ccco1)C(=O)CCl (some centres not stated)	15%
Cc1ccc(=O)n(-c2ccccc2)c1	32µM*
COc1c(O)cc2c(c1O)C1OC(CO)C(O)[C@H](O)[C@H]1OC2=O (some centres not stated)	11%
COc1ccc(C2CNC(=O)C2)cc1OC1CCCC1 (configuration not stated)	4%
O=C(O)CCC(=O)c1ccc(-c2ccccc2)cc1	1%
CC[C@H](NC(C)C)[C@H](O)c1ccc(O)c2[nH]c(=O)ccc12	8%
C[C@H](N[C@@H](C)COc1ccccc1)[C@H](O)c1ccc(O)cc1	0%[25.6 µM]
CN1CCCN=C1COC(=O)C(O)(c1ccccc1)C1CCCCC1 (configuration not stated)	-4%
N[C@@H](Cc1c[nH]c2ccc(O)cc12)C(=O)O	-6%
COc1cc2ncnc(Nc3cccc(Cl)c3)c2cc1OC	16µM*

3 structures already listed, sorted by formula weight, lowest first:
SMILES	HSD17B inh
N[C@@H](Cc1c[nH]c2ccc(O)cc12)C(=O)O	-6%
O=C(O)CCC(=O)c1ccc(-c2ccccc2)cc1	1%
CN1CCCN=C1COC(=O)C(O)(c1ccccc1)C1CCCCC1 (configuration not stated)	-4%

Of the compounds above, these contain a COOH group:
SMILES	HSD17B inh
C[C@@H](C(=O)O)c1ccc(C(=O)c2cccs2)cc1	-4%[25.6 µM]
NOCC(=O)O	-10%
CCn1cc(C(=O)O)c(=O)c2cnc(N3CCNCC3)nc21	-7%
O=C(O)CCC(=O)c1ccc(-c2ccccc2)cc1	1%
N[C@@H](Cc1c[nH]c2ccc(O)cc12)C(=O)O	-6%

Some of the entries so far, in markdown:
| molecule | HSD17B inh |
| --- | --- |
| CC[C@H](NC(C)C)[C@H](O)c1ccc(O)c2[nH]c(=O)ccc12 | 8% |
| C[C@H](N[C@@H](C)COc1ccccc1)[C@H](O)c1ccc(O)cc1 | 0%[25.6 µM] |
| CN1CCCN=C1COC(=O)C(O)(c1ccccc1)C1CCCCC1 (configuration not stated) | -4% |

Not all compounds are listed (hit frequency here may not be typical).
